Compound activity: PubChem BioAssay, ICCB-Longwood Screening Facility, Harvard Medical School
Mtb MbtI inh: MbtI salicylate synthase inhibitors, primary screen, biochemical, fluorescence intensity | P9WFX0 | purified MbtI enzyme, fluorescence intensity read-out | inhibition, %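 (about 17 µg/mL by stock and volumes)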 | hit rate 0.89% among 100,000 | AID 493033, 2011;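 active = above 50% in both replicates, above 80% if mildly self-fluorescent; inactive = the rest, strongly fluorescent compounds included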;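 also: 0% = mean of negative and 100% = mean of positive controls; one replicate is shown; some compounds called inactive have numbers as strong as hits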
Target sequence (P9WFX0 whole entry, looked up): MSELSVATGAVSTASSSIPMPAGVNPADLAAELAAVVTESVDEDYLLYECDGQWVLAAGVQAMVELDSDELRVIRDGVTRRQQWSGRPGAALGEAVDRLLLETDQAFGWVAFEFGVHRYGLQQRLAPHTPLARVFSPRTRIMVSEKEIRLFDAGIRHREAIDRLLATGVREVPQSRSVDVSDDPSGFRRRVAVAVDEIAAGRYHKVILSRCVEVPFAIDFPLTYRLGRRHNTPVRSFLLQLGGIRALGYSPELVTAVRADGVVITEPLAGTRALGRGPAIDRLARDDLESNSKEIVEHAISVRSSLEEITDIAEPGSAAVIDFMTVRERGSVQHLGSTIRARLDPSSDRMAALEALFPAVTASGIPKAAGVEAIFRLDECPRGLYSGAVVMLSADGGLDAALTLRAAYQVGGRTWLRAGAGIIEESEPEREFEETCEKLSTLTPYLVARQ
Mtb MenB inh: M. tuberculosis MenB inhibitors, primary screen, biochemical, absorbance. inhibition, %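 (about 12 µg/mL by stock and volumes)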. MenB enzyme assay, absorbance read-out; some hits fall short of the stated cut. 1,4-dihydroxy-2-naphthoyl-CoA synthase (Mycobacterium tuberculosis (strain ATCC 25618 / …. hit rate 0.43% among 100,000;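 active = mean of two replicates above 30%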;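 also: 0% = no compound and 100% = wells with inactive enzyme; the first replicate is given; strong numbers were not always called active; inactives centre near -10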
Target sequence (P9WNP5 whole entry, looked up): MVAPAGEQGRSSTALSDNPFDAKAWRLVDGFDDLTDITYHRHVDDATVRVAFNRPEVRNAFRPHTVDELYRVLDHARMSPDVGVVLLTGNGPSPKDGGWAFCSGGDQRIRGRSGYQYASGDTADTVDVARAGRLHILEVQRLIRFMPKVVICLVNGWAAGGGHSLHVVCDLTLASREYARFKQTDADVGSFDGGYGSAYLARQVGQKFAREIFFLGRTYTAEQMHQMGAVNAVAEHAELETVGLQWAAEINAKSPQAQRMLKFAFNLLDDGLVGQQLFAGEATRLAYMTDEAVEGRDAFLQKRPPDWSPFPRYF
PV pol inh: poliovirus RdRp elongation inhibitors, primary screen, biochemical, fluorescence polarization, total intensity; poliovirus polymerase elongation; hits give low values; AID 588519, 2011; Genome polyprotein (Poliovirus type 1 (strain Mahoney)), P03300; % elongation, % (compound at 16.7 µg/mL); hit rate 0.66% among 150,000; in the data active = % elongation below about 90%; also: some results filed as inactive read as strong as hits
PV pol inh intensity: also measured in PV pol inh; calls as there; % elongation; measured here: total intensity read-out; formula for this scale not given here;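 total fluorescence in place of polarization; lower means less elongation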
Starred values were filed as active, the others as inactive; i = inactive; nt = not tested or not shown. Hits appear at their usual frequency; 2% or so of the library scored in one or more.

#	molecule	Mtb MbtI inh	Mtb MenB inh	PV pol inh	PV pol inh intensity
1	CCOC(=O)c1ccc(N2C(=O)CC(N3CCN(c4ccc(O)cc4)CC3)C2=O)cc1 (stereo unspecified)	11	17	101	106
2	COc1cc2c3c(c1)C1(C(=O)N3C(C)(C)C=C2C)C(C#N)=C(N)NC(=O)C1C(N)=O (stereo unspecified)	3	15	103	104
3	Cc1oc2c(c1CC(=O)O)C(=O)CC(C)(C)C2	6	-28	102	101
4	Cc1nnc(COC(=O)CC23CC4CC(CC(C4)C2)C3)o1	-7	-8	105	108
5	CCc1ccc2c(c1)c1nc3ccccc3nc1n2CC	2	-32	101	97
6	CC(C)CC(NS(=O)(=O)c1ccc2c(c1)oc(=O)n2C)C(=O)NCc1ccco1 (stereo unspecified)	-4	4	99	103
7	O=C(Cn1cnc2c(oc3ccccc32)c1=O)N1CCCCCC1	19	15	100	103
8	O=C(O)CSc1ncnc2scc(-c3ccc(Br)cc3)c12	0	-14	109	114
9	COc1cccc2c(C)cc(=O)[nH]c12	-4	nt	104	107
10	Cc1nc(Cl)c(N)c(Cl)n1	14	-3	102	107
11	COc1ccc(CC(=O)NCC2COC3(CCCCC3)O2)cc1OC (stereo unspecified)	-2	-11	104	111
12	O=C1c2ccccc2C(=O)N1CCN1CCN(CCN2C(=O)c3ccccc3C2=O)CC1	-4	-18	99	103
13	CCOC(=O)C1=C(CSc2nc3cc(C(=O)OCC)ccc3n2CC)NC(=O)NC1C (stereo unspecified)	0	-6	104	110
14	COc1ccc(N2CCN(/C=C(\C#N)c3nc4ccccc4s3)CC2)cc1	14	-21	nt	nt
15	Cc1noc2ncnc(N(CCO)c3ccccc3)c12	-4	-31	103	103
16	CC1=C(C(=O)OC2CC(C(C)C)CCC2C)C(CC(=O)O)C(=O)N1 (stereo unspecified)	2	-7	99	101
17	Fc1ccc(N2CCN(c3ncc4c(n3)CCNC4)CC2)cc1	1	-22	104	105
18	CC(c1cccs1)N(C(=O)Nc1ccccc1)C1CCCCC1 (stereo unspecified)	4	-24	102	107
19	C=C(C)CC1C(=O)N(S(=O)(=O)c2ccccc2Cl)N=C1C (stereo unspecified)	-4	-10	110	111
20	O=C(CSc1nnc(-c2ccco2)o1)OCc1cc(=O)n2c(n1)sc1ccccc12	28	-28	nt	nt
21	Cc1nnc(SCC(=O)O)[nH]c1=O	-6	-8	102	107
22	CC1Sc2ccc(C(=O)N=c3sc4ccccc4n3C)cc2NC1=O (stereo unspecified)	55	-41	95	86
23	CC1CCc2sc(NC(=O)C(Cc3ccccc3)Cc3ccccc3)c(C#N)c2C1 (stereo unspecified)	2	-23	104	96
24	CC(SC#N)C(=O)C12CC3CC(CC(C3)C1)C2 (stereo unspecified)	3	-4	104	101
25	CCOC(=O)N1CCN(c2ccc(NCc3cc4ccc(OC)cc4[nH]c3=O)cc2)CC1	-10	-16	104	102
26	CC(C)(C)NC(=O)CN1CCN(C(=O)CN2CCc3ccccc32)CC1	2	-18	101	105
27	COc1ccccc1-n1ccn(CC#N)c(=O)c1=O	3	-11	97	105
28	O=C(Cn1ncc2c1-c1ccoc1CC2)NCc1ccccc1Cl	-5	-12	101	104
29	Cc1cc2ncn(Cc3ccccc3C)c2cc1C	-2	-28	104	105
30	Cc1noc(/C=C/N(C)C)c1S(=O)(=O)N(CCc1ccccc1)Cc1ccccc1	-7	-33	102	98
31	O=C1OCCC1Sc1ncnc2c1cnn2-c1ccccc1 (stereo unspecified)	-7	-7	104	113
32	CCc1cccc2c(/C=C3/C(=O)N(C)c4ccccc43)cn(CC(=O)NC3CCCC3)c12	4	-12	68	146

Of the compounds above, 3 contain a thiophene ring, fused or not.
#	molecule	Mtb MbtI inh	Mtb MenB inh	PV pol inh	PV pol inh intensity
8	O=C(O)CSc1ncnc2scc(-c3ccc(Br)cc3)c12	0	-14	109	114
18	CC(c1cccs1)N(C(=O)Nc1ccccc1)C1CCCCC1 (stereo unspecified)	4	-24	102	107
23	CC1CCc2sc(NC(=O)C(Cc3ccccc3)Cc3ccccc3)c(C#N)c2C1 (stereo unspecified)	2	-23	104	96

The results go on.
#	molecule	Mtb MbtI inh	Mtb MenB inh	PV pol inh	PV pol inh intensity
33	Cc1c(Cl)cccc1NC(=O)c1cccnc1Cl	4	15	102	103
34	CC1CCCN(CC(O)CN)C1 (stereo unspecified)	2	8	101	102
35	CN1CCN(S(=O)(=O)c2ccc(NC(=O)c3ccncc3)cc2)CC1	-5	9	100	103
36	O=C1C2=C(c3ccccc3)c3cc(F)ccc3C2Sc2ccccc21 (stereo unspecified)	-1	-39	104	91
37	CSc1ncc(C(=O)NC2CCN(Cc3ccccc3)CC2)c(C(F)(F)F)n1	-11	-1	101	102
38	CC(C)c1cc(NC(=O)COC(=O)c2ccccc2Oc2ccccc2)on1	1	-58	104	112
39	CCN(CC)S(=O)(=O)c1ccc(N=NC2=C(O)CCCC2=O)cc1	14	-115	104	108
40	CCOc1ccc2nc(SCc3ccc(C#N)cc3)[nH]c2c1	5	-10	102	100
41	O=C(COC(=O)C(c1ccccc1)c1ccccc1)NC1CCCCC1	-10	nt	101	104
42	CCCS(=O)(=O)NCc1cn2ccc(C)cc2n1	109	-50	97	109
43	CCc1ccccc1N1C(=O)CC(=O)NC1=S	17	-103	100	103
44	c1cncc(CNC2=NCCC2)c1	-2	1	102	102
45	CCN(CC)S(=O)(=O)c1ccccc1/C=N/O	nt	-8	101	107
46	CCOC(=O)C1=C(C)NC(SCC(=O)N2CCOCC2)=C(C#N)C1c1ccco1 (stereo unspecified)	-17	-25	97	90
47	CCN(CC)P(=O)(c1nc2ccccc2n1CC)N(CC)CC	12	-13	104	99
48	Cc1c(Cc2ccc3c(c2)OCO3)sc(NC(=O)c2ccco2)c1C(N)=O	-3	-4	101	104

From compound 41 up to 42, copied from above:
#	molecule	Mtb MbtI inh	Mtb MenB inh	PV pol inh	PV pol inh intensity
41	O=C(COC(=O)C(c1ccccc1)c1ccccc1)NC1CCCCC1	-10	nt	101	104
42	CCCS(=O)(=O)NCc1cn2ccc(C)cc2n1	109	-50	97	109

Next compounds:
#	molecule	Mtb MbtI inh	Mtb MenB inh	PV pol inh	PV pol inh intensity
49	CCOC(=O)NC(=O)c1cn(Cc2ccco2)c(=O)n(Cc2ccccc2)c1=O	-8	-26	108	111
50	CC(C)NC(=O)c1sc2c(c1C(=O)Nc1cccnc1)CCCC2	-6	nt	101	101
51	CCOC(=O)C(=NCC1CCCO1)NNc1cc(Cl)ccc1Cl (stereo unspecified)	-4	-27	108	113
52	CN1CCC(N(C)Cc2csc(-c3ccc(Cl)cc3)n2)CC1	-1	-10	92	86
53	O=C(O)CCCC(=O)Nc1ccc(Cl)cc1	nt	-20	110	105
54	O=C(COC(=O)Cc1ccccc1)NC1CCCc2ccccc21 (stereo unspecified)	-8	nt	102	104
55	CCC(C(=O)N1CCN(c2cccc(Cl)c2)CC1)c1ccccc1 (stereo unspecified)	2	-1	101	102
56	COc1cc(C(=O)Sc2ccc(Cl)cc2)cc(OC)c1OC	nt	-28	84*	75*
57	COc1ccc(-c2noc(CN(C(C)=O)C3CCCCC3)n2)cc1	-10	-48	106	101
58	Cn1cnnc1SCC(=O)C(C)(C)C	6	12	102	99
59	COc1ccc(-c2nc(=O)[nH]c(=O)[nH]2)cc1	i	18	99	101
60	O=C(CNC(=O)c1ccccc1)NCc1ccco1	-3	-18	103	103
61	CCCCOc1ccc(OCCNC(=O)c2ncn[nH]2)cc1	-13	-14	100	104
62	Cn1[nH]c(=O)c2ncccc2c1=O	2	-58	nt	nt
63	Cc1nn(-c2ccccc2)c(C)c1/C=C/C(=O)OCC(=O)N1CC(=O)Nc2ccccc21	5	-24	106	104
64	Cc1ccc(/C=N/N=C2\CC3CCC2(C)C3(C)C)o1 (stereo unspecified)	-3	-7	101	100
65	COCC(C)NCc1ccccc1C (stereo unspecified)	-1	-44	101	99
66	c1ccc2c(c1)nnn2-c1ncnc2sccc12	1	-23	101	116
67	Cc1noc(/C=C/N(C)C)c1S(=O)(=O)N1CCCC(C(=O)NC2CCCCC2)C1 (stereo unspecified)	-12	1	101	106
68	N#CC(C(=O)CN1CCN(c2ccccc2)CC1)c1ccccc1 (stereo unspecified)	-17	-32	104	102
69	N#Cc1ccc(-c2cc(C(F)(F)F)ccc2Cl)o1	nt	-12	107	115
70	Fc1ccccc1-c1noc(NCC2CCCO2)n1 (stereo unspecified)	-8	-11	103	103
71	O=C(OCC(=O)N1CCCC1)c1ccc(S(=O)(=O)Nc2ccccc2)cc1	7	6	100	107
72	COCCn1cnc2c1c(=O)n(CC(=O)NC(=O)NC1CCCC1)c(=O)n2Cc1ccccc1	-17	-18	104	110
73	S=C(Nc1ccccc1)Nn1cnnc1	48	-4	99	100
74	Cc1ccnc(N(C(=O)c2nn(C)c3c2COc2ccccc2-3)C(=O)c2nn(C)c3c2COc2ccccc2-3)c1	25	13	100	97
75	CC(=O)Nc1cc(C(=O)N2CC=C(c3ccccc3)CC2)ccc1Sc1ccc(Cl)cc1	3	-17	102	105
76	Cc1nn(CC(O)CN2c3ccccc3Sc3ccccc32)c(C)c1Br (stereo unspecified)	3	-22	103	103
77	N#CCCS(=O)(=O)c1ccc(Br)cc1	-19	-44	100	102
78	O=C(NC(Cc1c[nH]c2ccccc12)C(=O)NNC1=NCCC1)c1ccccc1 (stereo unspecified)	-7	0	100	106
79	O=C(Cn1cnc2c(oc3ccccc32)c1=O)N1CCCC1c1ccc2c(c1)OCCCO2 (stereo unspecified)	-4	-13	105	103
80	COc1ccc(NC(=O)NC(C)C2CCCO2)c(OC)c1 (stereo unspecified)	-1	-23	103	103

Arranged by heavy-atom count (rising): some entries from above.
#	molecule	Mtb MbtI inh	Mtb MenB inh	PV pol inh	PV pol inh intensity
65	COCC(C)NCc1ccccc1C (stereo unspecified)	-1	-44	101	99
61	CCCCOc1ccc(OCCNC(=O)c2ncn[nH]2)cc1	-13	-14	100	104
26	CC(C)(C)NC(=O)CN1CCN(C(=O)CN2CCc3ccccc32)CC1	2	-18	101	105

New compounds follow.
#	molecule	Mtb MbtI inh	Mtb MenB inh	PV pol inh	PV pol inh intensity
81	CC1CN(C(=O)c2ccc(NC(=O)c3ncoc3-c3ccc4ccccc4c3)cc2)CC(C)O1 (stereo unspecified)	22	-23	102	103
82	Clc1ccc(-n2ccnc2Sc2ncnc3sc4c(c23)CCCC4)cc1	17	3	nt	nt
83	COc1ccc(C2SCC(C(=O)NC(C)C)N2C(=O)Nc2ccc(C)c(C)c2)cc1 (stereo unspecified)	8	-19	103	102
84	C=CCn1c(N)cc(=O)nc1SCC(=O)OC1CC2CCC1(C)C2(C)C (stereo unspecified)	-13	-3	100	104
85	N#Cc1ccc(Cl)cc1NC(=O)COC(=O)CSc1ncnc2sccc12	18	-19	106	106
86	O=C(/C=C/c1ccccc1)Nc1nc(-c2ccccc2)cs1	0	nt	102	97
87	CCOC(=O)c1[nH]c(CN2CCN(c3ccc(OC)cc3)CC2)c(C(=O)OCC)c1C	-11	-32	112	124
88	CCOC(=O)C1C(=O)Oc2ccc3ccccc3c2C1C1CCOC1=O (stereo unspecified)	-20	-16	101	109
89	Cc1c(NS(=O)(=O)c2ccc(Cl)c(C(=O)OC(C)C(=O)N3CCOCC3)c2)c(=O)n(-c2ccccc2)n1C (stereo unspecified)	-9	5	110	107
90	Cc1c(C)n(Cc2ccccc2)c2ccc(C(=O)Nc3ncn[nH]3)cc12	nt	-25	97	91
91	O=C(CSc1ncnc2c1nnn2Cc1ccccc1)NCc1ccccc1	-6	5	102	106
92	CC(=O)N1CCc2cc(C(O)CN3CCN(C4CCCCC4)CC3)ccc21 (stereo unspecified)	1	-25	104	98
93	NNc1nc2ccccc2c(=O)n1Cc1ccccc1	89	-15	100	102
94	Cc1ccc(C2=NN(C(=O)CN3CCC(C)CC3)C(c3ccco3)C2)cc1 (stereo unspecified)	2	-21	106	109
95	C/C(N)=C(/C#N)C(=O)CSc1nc(-c2ccc(C)c(C)c2)cn1-c1ccccc1	12	8	106	105
96	C=CCn1cnc2scc(-c3ccc(OC)cc3)c2c1=O	nt	-4	112	117
97	O=C(O)c1cc(-c2ccccc2)c(C(=O)O)cn1	nt	-14	105	106
